Screening data deposited in PubChem BioAssay by National Center for Advancing Translational Sciences (NCATS).
VDR inh – Inhibitors of the vitamin D receptor (VDR): qHTS | Vitamin D3 receptor (Homo sapiens), P11473 | VDR-SRC2-3 peptide fluorescence polarization, 2 h | Potency, µM, without a hit: max response, negative = inhibition, usual class: inhibitors | 0.93% of 400,000 active | AID 504847, 2011; active = well fitted inhibition curve with a large enough effect; inconclusive = small, poorly fitted or top-dose-only effect, or another doubt; inactive = no such curve, though single readings can be large or run the other way; note: series mostly up to about 120 µM
Target sequence (P11473 whole entry, looked up): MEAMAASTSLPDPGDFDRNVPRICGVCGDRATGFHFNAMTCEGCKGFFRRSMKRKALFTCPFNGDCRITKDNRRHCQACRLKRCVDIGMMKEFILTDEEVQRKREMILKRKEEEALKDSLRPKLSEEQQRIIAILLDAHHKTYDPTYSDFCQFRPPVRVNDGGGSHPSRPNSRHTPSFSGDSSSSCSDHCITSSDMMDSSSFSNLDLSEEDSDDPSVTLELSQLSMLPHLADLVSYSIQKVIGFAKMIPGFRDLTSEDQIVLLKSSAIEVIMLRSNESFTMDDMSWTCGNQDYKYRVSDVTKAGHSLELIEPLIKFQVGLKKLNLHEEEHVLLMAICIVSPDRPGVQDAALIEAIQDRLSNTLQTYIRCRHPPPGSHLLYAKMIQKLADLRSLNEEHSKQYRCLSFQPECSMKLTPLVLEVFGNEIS
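FP read-out; VDR + SRC2-3 coactivator peptide; 23 nl compound by pintool; 2 h RT incubation; reagents held at 4 deg C, protected from light.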
Starred values were filed as active, the others as inactive; ? = inconclusive; & = joins results of further samples. % is set by controls: 0 for no effect and ±100 for the full control effect; potency is the fitted concentration of half-maximal effect. A portion of the library (hit frequency here may not be typical).

SMILES | VDR inh
CCOC(=O)C(Cc1ccccc1)NC(=O)CCc1c(C)nc2nc(C)nn2c1C (stereo not drawn) | ?
Cc1cc2ccccc2nc1Br | -8.1%
Cc1ccc(CN2CC34C=CC(O3)C(C(=O)NCc3ccco3)C4C2=O)cc1 (stereo not drawn) | -12.0%
COc1cccc(C(=O)N2CCN(C3CCCCC3)CC2)c1 | -11.5%
COc1cc(O)oc1C=Nc1ccc(Cl)cc1 | -16.9%
CCOc1ccc(Nc2nc(NCCN3CCOCC3)nc(OC)n2)cc1 | -1.9%
Cc1ccc(NC(=O)CSc2nnc(-c3cccnc3)o2)c(C)c1 | -11.8%
CCOC(=O)Cn1nc(C(F)F)c(Br)c1C | -15.6%
O=C(/C=C/c1ccccc1)N1CCOCC1 | 4.5%
O=S(=O)(NCCc1nnc2ccc(SCc3c(F)cccc3Cl)nn12)c1ccccc1 | -1.6%
COc1cccc(CN2CCN(CCCc3ccccc3)C(CCO)C2)c1O (stereo not drawn) | -6.7%
O=C(c1cnn2c(C(F)F)cc(-c3ccccc3)nc12)N1CCOCC1 | 4.8%
O=c1nc(-c2ccccc2)c2ccccc2[nH]1 | 21.7%
CCOC(=O)N1CCC(Nc2c(NCCCN3CCN(C4CCCCC4)CC3)c(=O)c2=O)CC1 | -8.2%
COc1cc(NC(=O)c2cccc(Cl)c2)c(OC)cc1NC(=O)CN1CCCCC1 | -25.1%
CCN(CC)S(=O)(=O)c1cc(F)ccc1OC | 7.8%
c1ccc2sc(SSc3nc4ccccc4s3)nc2c1 | -19.8%
C=C(C)C1Cc2c(ccc(C(=O)O)c2O)O1 (stereo not drawn) | 8.2%
COc1ccc(-c2cc(N3C(=O)Nc4ccccc4N3O)n[nH]2)cc1 | 5.3%
Cc1ccc(NC(=O)CSc2nc3ccccc3c3nc4ccccc4n23)cc1 | -11.8%
CSc1ccc(/C=N/n2c(COc3ccccc3)n[nH]c2=S)cc1 | 2.3%
COc1ccc(/C=N/NC(=O)c2cccnc2)cc1CN1CCCc2ccccc21 | -11.8%
CCCCN(C)C1CCN(C(=S)Nc2ccc(OCC)cc2)CC1 | 5.3%
O=C(Nc1ccc2c(c1)OCO2)c1cc(-c2cccc(Cl)c2)on1 | -24.6%
Cn1nc([N+](=O)[O-])nc1N1CCN(c2ccc(F)cc2)CC1 | -8.7%

(next part)
SMILES | VDR inh
COc1ccc(OCC(O)CN2CCC(CN3C(=O)c4cccc5cccc(c45)C3=O)CC2)cc1 (stereo not drawn) | -5.8%
COc1ccc(C(=O)NC(=S)Nc2ccc(S(N)(=O)=O)cc2)cc1 | 3.7%
Cc1c(Cl)cccc1Nc1nc(N)nc(CSCCO)n1 | -1.2%
COc1ccc(OC)c(NC(=O)CN2CCC(NC(=O)c3ccccc3C)CC2)c1 | -3.2%
CC(NCC(=O)Nc1cc(S(=O)(=O)N2CCOCC2)ccc1N1CCOCC1)c1ccco1 (stereo not drawn) | 5.9%
COC(=O)CSc1nnc2n(C3CCCCC3)c(=O)c3c4c(sc3n12)CCCC4 | -13.7%
COCc1c(Br)c(C)nc2sc3c(=O)n(-c4cccc(Br)c4)nnc3c12 | 14.1%
C=CCNC(=S)NNc1nc2c(c(=O)[nH]1)C1(CCCC1)Cc1ccccc1-2 | ?
CCn1c(COc2ccccc2Cl)nnc1SCC(=O)Nc1ncccc1C | -6.3%
N#Cc1ccc(-c2ccc(OCC(O)CN3CCCCC3)cc2)cc1 (stereo not drawn) | -5.9%
CCCCNC(=O)Cn1c(=O)c2c(ncn2CCC(C)C)n(Cc2ccccc2)c1=O | -14.8%
O=C(NC1CCCC1)C(c1ccncc1)N(Cc1ccccc1)C(=O)c1ccc(-c2ccccc2)[nH]1 (stereo not drawn) | 10.4%
Cc1ccc(NC(=O)Cn2nc(-c3ccc(Cl)cc3)c3ccccc3c2=O)cc1 | 7.9%
COc1ccc(-c2cc3nc(C)c(CCC(=O)Nc4ccc(F)cc4F)c(C)n3n2)c(OC)c1 | -2.0%
CCCOC(=O)C1=C(C)OC23OC(N)=C(C#N)C12C(=O)c1ccccc13 (stereo not drawn) | 5.7%
CC(C)C(Nc1ccc(C(F)(F)F)cc1[N+](=O)[O-])C(=O)O (stereo not drawn) | -3.6%
CCc1ccc(N(C2C=CS(=O)(=O)C2)S(=O)(=O)c2ccc(C)cc2)cc1 (stereo not drawn) | -11.0%
COc1cc(OC)cc(C(=O)NC2CCN(Cc3nnnn3Cc3ccc(F)cc3)CC2)c1 | 3.3%
COc1ccc(N2CCN(Cc3nc(-c4ccc(C)cc4)no3)CC2)cc1 | -2.2%
COCc1cc(C)nc2sc(C(=O)N3CCCCC3)c(N)c12 | -15.0%
COc1cccc(CNC(=O)c2ccccc2-c2ccccc2)c1 | 9.5%
O=C(NC(=S)Nc1ccc(N2CCCCC2)cc1)c1ccco1 | -2.7%
Nc1nc(N)c(N=Nc2ccc(S(N)(=O)=O)cc2)c(=O)[nH]1 | -19.8%
COc1ccc(CN(Cc2cc3cc(OC)c(OC)cc3[nH]c2=O)C(=O)NC2CCCCC2)cc1 | -3.1%
Cc1cccc(NC(=S)N2N=CCC2c2ccccc2)c1 (stereo not drawn) | 7.8%

The list goes on.
SMILES | VDR inh
Brc1ccc(-c2csc(/N=C/N3CCCC3)n2)cc1 | -4.3%
O=C(COc1ncnc2ccccc12)Nc1cc([N+](=O)[O-])ccc1Cl | -9.8%
CC1CCCC(=NNc2ccc3ccccc3n2)C1 (stereo not drawn) | -11.9%
CC(=O)NN=C1CCC(c2ccccc2)CC1 (stereo not drawn) | 21.0%
COc1ccc(N2CCN(C(c3cccs3)C(C)NC(=O)C(=O)N3CCOCC3)CC2)cc1 (stereo not drawn) | 14.9%
Cc1ccccc1CN1CCN(C/C=C/c2ccccc2)CC1 | -6.5%
COc1cc(/C=C2/C(=N)N3C(c4ccccc4)=CSC3=NC2=O)ccc1OCC(=O)O | -24.4%
O=S(=O)(Nc1ccc(-c2ccc(N3CCCC3)nn2)cc1)c1ccc(Br)cc1 | 16.6%
Cc1ccc(CN2CCN(Cc3ccccc3C(F)(F)F)CC2)cc1 | -4.4%
COc1ccc(C(=O)COc2ccccc2C(=O)Nc2ccccc2)cc1 | -2.8%
COc1ccc(CCNC(=O)/C(=C/c2cccnc2)NC(=O)c2ccccc2)cc1 | -22.1%
Cc1ccc(S(=O)(=O)N(CC(=O)NCCc2ccc(Cl)cc2)c2ccccc2C)cc1 | -9.1%
O=c1[nH]c2ccc(NS(=O)(=O)c3ccc([N+](=O)[O-])cc3)cc2[nH]1 | -7.5%
CNC(C)c1ccc(S(N)(=O)=O)cc1 (stereo not drawn) | -15.3%
CCOC(=O)COC(=O)c1ccc(O)cc1 | 5.0%
Cc1cc(C)nc(N/N=C/c2cc(C)n(CC(F)(F)F)c2C)n1 | 8.4%
Cc1nc(Nc2ccc3c(c2)OCCO3)c2oc3ccccc3c2n1 | -5.1%
CCOc1cc(CNC(=O)c2cc(-c3ccccc3)n[nH]2)cc(OCC)c1OCC | -2.6%
CCC(c1nnnn1C(C)(C)C)N1CCN(C2CCCC2)CC1 (stereo not drawn) | -1.4%
O=C(COC(=O)/C=C/c1ccc(S(=O)(=O)N2CCOCC2)cc1)Nc1ccc(F)c(F)c1F | -19.2%
Cc1ccc2c(CC(=O)Nc3cc(C(F)(F)F)ccc3Cl)coc2c1C | 8.4%
Cc1ccc(CNc2nc3ccc(C)cc3n3nnnc23)cc1 | 2.3%
Cc1nn(CC(C)C)c2sc(C(=O)NC3CC(C)(C)NC(C)(C)C3)cc12 | 19.5%
CCc1nnc(NC(=O)c2cc(-c3ccccn3)nc3ccc(Br)cc23)s1 | 6.2%
CN(c1ccccc1)S(=O)(=O)c1cccc(NC(=O)CSc2nncn2C)c1 | 16.5%

(further entries)
SMILES | VDR inh
CCOC(=O)c1c(NC(=S)Nc2ccccc2C)sc2c1CCC2 | -4.0%
Cc1cccc(C)c1NC(=O)C1(NC(=O)C2CCC(=O)N2)CCCCC1 (stereo not drawn) | -22.1%
CCN(CC)c1nc2cc(OC)ccc2cc1C#N | -17.5%
N#Cc1cccc(NC(=O)CSc2ccc3c4c(cccc24)C(=O)c2ccccc2-3)c1 | 3.3%
Cc1ccc(-n2cnc(=O)c3cccnc32)cc1 | 5.1%
Cc1cc2c(cc1S(=O)(=O)N1CCC(C(N)=O)CC1)OCC(=O)N2 | 3.6%
CC(NC(=O)COC(=O)[C@@H]1CCCN1S(=O)(=O)c1ccccc1F)C12CC3CC(CC(C3)C1)C2 (stereo partly drawn) | 0.0%
O=C(c1cnccn1)N1CCC2(CC1)CCN(c1ccccn1)CC2 | 6.2%
O=C(NCC1CCCO1)c1ccc(NS(=O)(=O)c2ccccc2)cc1 (stereo not drawn) | -5.6%
COc1cc(OC)cc(C2=NC3(CCC(C)CC3)NC2=S)c1 (stereo not drawn) | 10.5%
O=C(CC1NCCNC1=O)Nc1ccccc1 (stereo not drawn) | 3.9%
Cc1ccc(N(Cc2ccc(C(=O)Nc3c(C)n(C)n(-c4ccccc4)c3=O)cc2)S(C)(=O)=O)cc1C | 8.8%
Nc1ccc(-c2sc(N)nc2-c2ccccc2)cc1 | -19.3%
C=CCOc1ccc2ccccc2c1CNn1cn[nH]c1=S | -5.1%
CCCCCn1c(CCNC(=O)c2cccc(C)c2)nc2ccccc21 | -15.6%
Nc1nc(N)c(S(=O)(=O)c2ccccc2)c(Nc2ccc(F)cc2)n1 | -19.1%
CCCCN(CCCNC(=O)c1cc(Nc2ccc(OC)cc2OC)nc2ccccc12)Cc1ccccc1 | 18.5%
CCn1c(=O)c2c3c(sc2n2cnnc12)CCC3 | 7.1%
COc1ccc(CCNC(=O)CN2CCN(Cc3ccc(F)cc3)C2=O)cc1OC | -20.1%
CC(C)C(NS(=O)(=O)c1ccc2c(c1)oc(=O)n2C)C(=O)N1CCN(c2cccc(Cl)c2)CC1 (stereo not drawn) | 3.1%
Cc1[nH]c(C)c(S(=O)(=O)NCc2ccc(OC(C)C)cc2)c1C(=O)N1CCCC1 | -2.2%
C=CCC(=O)NC1CC(C)(C)Cc2c1cnn2-c1ccccc1C (stereo not drawn) | -7.7%
Cc1ccccc1NC(=O)CS(=O)(=O)c1cn(CC(=O)N2CCOCC2)c2ccccc12 | -12.5%
Cc1ccccc1NS(=O)(=O)c1nnc(NC(=O)c2ccc(Cl)cc2)s1 | -0.5%&17.6%
Cc1ccc(CCNC(=O)c2ccc(CS(=O)(=O)Cc3ccccc3F)o2)cc1 | 13.1%&-9.9%

The list goes on.
SMILES | VDR inh
Cc1noc(C)c1COc1ccccc1C(=O)NCc1ccccc1Cl | 4.1%
Cc1ccc(S(=O)(=O)NCC(=O)OCc2ccccc2Br)cc1 | -4.0%
CCOc1ccc(C(=O)N(CN2CCCC2=O)c2ccccc2)cc1 | 3.4%
Cc1ccc(Nc2nc3ccccc3c3nnc(C)n23)cc1Cl | 1.5%
Clc1ccccc1OCc1nnc(-c2ccccc2Br)o1 | 10.0%
COc1ccc(-c2nc(CN3CCC(C(=O)NCc4ccc(C)cc4)CC3)c(C)o2)cc1OC | 2.5%
CCCN(Cc1cc2cc(C)ccc2[nH]c1=O)S(C)(=O)=O | -9.9%
O=C(Cn1cnc2ccccc21)N1CCN(S(=O)(=O)c2ccccc2)CC1 | -1.1%
O=C(Nc1ccccc1)N[C@H]1C[C@H](C(=O)O)Nc2cc(Cl)cc(Cl)c21 | ?
Cc1nn(-c2ccc(N3CCCCC3)nn2)c(C)c1CCC(=O)NCc1ccc(F)cc1 | 11.6%
Cc1ccc(NC(=O)NNC(=O)C2CCN(Cc3ccc(F)cc3Cl)CC2)cc1 | 12.4%
CC1=C(C(=O)Nc2ccccc2C)C(c2ccc[nH]2)n2ncnc2N1 (stereo not drawn) | 2.9%
CCCCc1nc(C(N)=O)c2[nH]c(=O)n(-c3ccc(OC)cc3OC)c2n1 | -26.7%
Cc1nn(CCCC(=O)NCCc2ccccc2)c(C)c1[N+](=O)[O-] | 9.7%
Cc1cccc(CN2CCN(C(=O)CCc3nnc(C4CCCCC4)o3)CC2)c1 | 6.1%
COc1ccc(-c2nc3ncccn3c2Nc2ccccc2)cc1 | ?
COc1cc(OC)cc(C(=O)Oc2c(CN3CCOCC3)cc(Cl)c3cccnc23)c1 | -0.8%
O=C(Nc1ccc(S(=O)(=O)N2CCCC2)cc1)c1ccc(CN2CCc3ccccc3C2)cc1 | 9.2%
O=C1CN(C(=O)c2ccccc2)C(c2ccc(F)cc2)c2cc(Br)ccc2N1 (stereo not drawn) | -7.1%&-23.5%
